# PMP22 txn prim: modulates PMP22 transcription in S16 Schwann cells | S16 Pmp22-F2sN Schwann cells (luciferase reporters placed in the Pmp22 gene), FLuc/NLuc coincidence luminescence, 24 h | AID 1508649 | 43,000 tested, 2% active | Potency, µM (highest dose often 57.5 µM), for inactives: at the top dose activity change, negative = inhibition, most hits filed as inhibitors; active = clear falling dose curves in both reporters; inconclusive = both reporters move, but less clearly or upward; inactive = either reporter flat; the % is the NLuc reporter signal; also: % is scaled to controls: 0 for no effect and ±100 for the full control effect; some results filed as inactive show a strong effect at the top dose
#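 S16 Schwann cells carrying FLuc/NLuc coincidence reporter in the Pmp22 3' UTR treated with compound 24 h at 37C; FLuc then NLuc luminescence read sequentially by dual-luciferase reagents.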
# HTT prom inh: HTT promoter inhibition | 48,000 tested, 0.93% active | Potency, µM (highest dose often 57.5 µM), for the others: at the top dose activity change, negative = inhibition, actives largely listed as inhibitors | HEK293 HTT promoter firefly luciferase reporter (activity 0% = vehicle and -100% = no light), 24 h | AID 1508623; active = well fitted inhibition curve with a large enough effect; inconclusive = small, poorly fitted or top-dose-only effect; inactive = no such curve, though single readings can be large or run the other way; also: nearly all actives have a fitted effect of over 50% in size
#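 Luminescence was read after Dual-Glo reagent and a 10 min room-temperature incubation. Values were normalized to vehicle (0% activity) and zero RLU (-100% activity). Reporter HEK293 cells had been exposed to compounds (up to 57.5 uM final) for 24 h.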
# An asterisk follows results filed as active; u = inconclusive; x = no result given; & = joins results of further samples; [ ] = dose if it differs, or a comment. Potency is read from the fitted curve at half-maximal effect.
entry	SMILES	HTT prom inh	PMP22 txn prim
1	COc1ccc2oc(=O)cc(CN3CCN(c4ccccc4OC)CC3)c2c1	-9%	-13%
2	Cc1ccc(-c2nn(CC(=O)NC3CCCC3)c3c2cnc2ccc(F)cc23)cc1C	17%	-4%
3	Cc1ccc(C)c(N2CCN(S(=O)(=O)c3c(C(=O)N4CCC(C)CC4)c(C)n(C)c3C)CC2)c1	u	u
4	COc1cccc(NC(=O)N2CCN3CCCCC3C2)c1 (centres undefined)	-1%	4%
5	COc1cccc(C(=O)Nc2nc3nc(C)c(C)c(=O)n3[nH]2)c1	-11%	-7%
6	O=C(CCCn1ccc2cc(S(=O)(=O)N3CCCC3)ccc21)NCc1ccc(Cl)cc1	u	u
7	O=C(COc1ccccc1)Nc1nnc(S(=O)(=O)N2CCCC2)s1	-5%	11%
8	CCC[C@@H](C=O)NC(=O)[C@H](CC(C)C)NC(=O)[C@H](CC(C)C)NC(=O)OCc1ccccc1	u	x
9	CC(C)Oc1ccc(C(=O)N2CCC(c3nc4ccccc4o3)CC2)cc1	u	-22%
10	CCc1cccc(NC(=O)CN(c2ccc(C)cc2)S(=O)(=O)c2cccs2)c1	-22%	u
11	O=C(Nc1ccc(-c2nc3ccccc3o2)c(O)c1)c1cc(Cl)ccc1Cl	-16%[11.5 µM]	-10%
12	O=C(Nc1ccc(Cl)cc1)c1cnn2c1NC(c1ccccc1)=CC2c1ccccc1 (centres undefined)	u	14µM*
13	CCCOc1ccc(C(=O)Nc2cc(-c3nc4ccccc4[nH]3)ccc2C)cc1	-19%	-17%
14	O=C(COc1ccc(Cl)cc1)Nc1ccc(C(=O)OCc2cc(=O)n3ccsc3n2)cc1	u	u
15	CSCCC(NS(=O)(=O)c1cccs1)C(=O)Nc1ccc(C)c(Cl)c1 (centres undefined)	4%	-4%
16	COC(=O)c1cccnc1-n1c(=O)c2cccnc2n(CC(=O)Nc2ccc(C)cc2C)c1=O	-2%	2%
17	CC(C)c1ccc(NC(=O)CCS(=O)(=O)c2ccc3c(c2)CC(=O)N3C)cc1	-2%	-14%
18	COc1ccccc1Cc1nc2ccccc2nc1SCC(=O)N1CCCCC1	-21%	-11%
19	COc1ccc(NC(=O)Cn2ncc3c4ccccc4n(Cc4ccccc4)c3c2=O)cc1OC	17%	-22%
20	CCCn1c2ccccc2c2cnn(CC(=O)NCCCN3CCCCC3CC)c(=O)c21 (centres undefined)	-8%	u
21	COc1cc([C@@H]2Nc3c(F)cccc3[C@@H]3C=CC[C@@H]32)cc(Br)c1OC	-23%	u
22	CC1CCN(S(=O)(=O)c2ccc3c(c2)N(CC(=O)NCCCN2CCCCC2C)C(=O)CS3)CC1 (centres undefined)	-13%	-23%
23	Cc1nc(SC(C)C(=O)Nc2ccccc2Cl)cc(-c2ccccc2)n1 (centres undefined)	-26%	-3%
24	CCOc1cc(-c2ccc(OC(=O)c3ccccc3Cl)c(OC)c2)cc(=O)c2c(C)oc(C)c12	-6%	-21%
25	COc1cccc(NC(=O)C2CCCN(S(=O)(=O)c3ccc4[nH]c(=O)ccc4c3)C2)c1 (centres undefined)	-30%	3%
26	COc1ccccc1CNC(=O)c1c[nH]c2ccc(S(=O)(=O)Nc3cc(C)cc(C)c3)cc2c1=O	u	u
27	CC1CCN(c2nnc(-n3cccc3CNc3cccc(F)c3)s2)CC1	5.6µM*	u
28	COc1ccc(CN2C(=O)N(c3cccc(C)c3)C(=O)C2CC(=O)Nc2ccc(F)cc2)cc1OC (centres undefined)	-9%	13%
29	CCc1ccc(NC(=O)Cn2nnc(C(=O)Nc3cc(C)ccc3OC)c2N)cc1	-26%	u
30	Cc1ccc(C)c(OC(=O)CSc2nnc(CNC(=O)c3ccccc3)o2)c1	2%	6%
31	COc1ccc(CNC(=O)CCc2nnc3n(CC(C)C)c(=O)c4ccccc4n23)cc1	-9%	-4%
32	CCOc1ccc(C(=O)c2cn(CC(=O)Nc3ccc(Cl)cc3)c3cc4c(cc3c2=O)OCCO4)cc1	u	u
33	COc1cc2c(C(=O)N3CCN(c4cccc(Cl)c4)CC3)cn(C)c(=O)c2cc1OC	u	-26%
34	COC(=O)c1ccc(Cl)cc1NC(=O)N1CCC(CN2CCCC2)CC1	-17%	-11%
35	CCOc1cccc(C2c3[nH]c4ccccc4c3CCN2C(=O)CSc2ccccc2)c1 (centres undefined)	-30%	-32%
36	Cc1ccc2[nH]c(=O)c(CN(C(=O)c3cccc(Cl)c3)C(C)(C)C)cc2c1	-17%	-22%
37	COC(=O)C1CCN(S(=O)(=O)c2ccc(N3CCCCS3(=O)=O)cc2)CC1	u	-5%
38	CCCOc1cccc(C(=O)Nc2cccc(NC(=O)c3ccc(Cl)cc3Cl)c2)c1	-22%	-10%
39	COC(=O)c1ccccc1NC(=O)c1ccc(COc2ccccc2Cl)o1	-10%	u
40	Cc1ncc([N+](=O)[O-])n1CCO	8%&6%	x
41	COc1ccc(CNC(=O)c2ccc3nc(CCc4ccccc4)oc3c2)cc1OC	u	u
42	COc1ccc(-n2c(SCC(=O)N3CCc4ccccc43)nc3c([nH]c4ccccc43)c2=O)cc1	-8%	3%
43	COc1cc(F)c(S(=O)(=O)Nc2c(C)n(C)n(-c3ccccc3)c2=O)cc1OC	-5%	6%
44	CCCC(CCC)C(=O)Nc1cccc(-c2nc3cccnc3s2)c1	-3%	-31%
45	Cc1ccc(Cl)cc1NCc1nnc2n1CCCCC2	-8%	-3%
46	CCC(=O)c1cc2c(cc1NC(=O)c1ccccc1F)OCCO2	12%	-11%
47	CN(CC(=O)NCc1ccc(Cl)cc1)S(=O)(=O)c1ccc2c(c1)c(=O)n(C)c(=O)n2C	-5%	-22%
48	COc1cccc(NC(=O)CN2C(=O)COc3ccc(S(=O)(=O)N4CCOCC4)cc32)c1	-7%	-10%
49	O=C(Nc1ccc(S(=O)(=O)N2CCC(c3nc4ccccc4s3)CC2)cc1)c1ccccc1	-1%	-16%
50	CC[C@H]1OC(=O)[C@H](C)[C@@H](O[C@H]2C[C@@](C)(OC)[C@@H](O)[C@H](C)O2)[C@H](C)[C@@H](O[C@@H]2O[C@H](C)C[C@H](N(C)C)[C@@H]2O)[C@](C)(O)C[C@@H](C)CN(C)[C@H](C)[C@@H](O)[C@]1(C)O	-2%	x
51	C[C@@H]1C[C@H]2[C@@H]3CCC4=CC(=O)C=C[C@]4(C)[C@@]3(F)[C@@H](O)C[C@]2(C)[C@@]1(O)C(=O)COC(=O)c1ccncc1	-4%	x
52	COc1ccccc1-c1noc(-c2ccc(N3CCC(C)CC3)c([N+](=O)[O-])c2)n1	33%[activator]	u
53	Cc1ccc(S(=O)(=O)n2nc(-c3ccc(Cl)cc3)nc2NCc2ccc(F)cc2)cc1	-6%	-25%
54	COc1cccc(CNC(=O)C(=O)NCC(c2ccc3c(c2)OCO3)N2CCOCC2)c1 (centres undefined)	-24%	-16%
55	O=C(NCC(c1ccc2c(c1)OCO2)N1CCOCC1)C(=O)Nc1ccccc1 (centres undefined)	-11%	-13%
56	CC(=O)N1CCCc2ccc(NS(=O)(=O)c3ccc(F)cc3F)cc21	-17%	0%
57	Fc1ccc(-n2ncc3c(Nc4ccc5c(c4)OCCO5)ncnc32)cc1	2%	-14%
58	CCOC(=O)c1ccc(N2C(=O)c3[nH]nc(-c4ccccc4)c3C2c2ccc(CC)cc2)cc1 (centres undefined)	u	u
59	CN(C)C=NC(=O)c1cc2c(n(-c3ccccc3)c1=O)CC(C)(C)CC2=O	-18%	6%
60	Cc1ccc(C)c(S(=O)(=O)c2nnn3c2nc(Nc2ccc(C)c(C)c2)c2ccccc23)c1	-14%	-3%

# New compounds follow:
entry	SMILES	HTT prom inh	PMP22 txn prim
61	O=C(NCc1ccccc1Br)c1ccc2c(c1)nc1n2CCOC1	8%	1%
62	CC(C)c1nc2ccc(C(=O)NCc3ccc(N(C)C)cc3)cc2o1	-18%	-8%
63	COc1cc(S(=O)(=O)NCCc2c(C)[nH]c3ccc(C)cc23)ccc1Br	-20%	-11%
64	O=C(Nc1ccccc1Cl)c1ccc(F)c(S(=O)(=O)NCc2ccc(Cl)c(Cl)c2)c1	u	u
65	c1ccc2c(c1)ncc1nncn12	-2%	-14%
66	CC(C)c1ccc(Cn2c(COc3ccccc3)nc3ccccc32)cc1	1%	-11%
67	Cc1ccc(C)c(NC(=O)CN2CCN(C3CCCCC3)C(=O)C2=O)c1	1%	u
68	CCS(=O)(=O)c1nc(S(=O)(=O)c2ccc(C)cc2)c(NCCCOC)s1	-8%	28%
69	CCOc1ccc(NC(=O)C2CC(=O)N(c3ccc(C(C)C)cc3)C2)cc1 (centres undefined)	-2%	-7%
70	COCCc1ccc(OCC2CO2)cc1 (centres undefined)	16%	x
71	CC1CCCN(c2c(S(=O)(=O)c3ccccc3)cnc3ccc(Cl)cc23)C1 (centres undefined)	-14%	u
72	CCOc1ccc(S(=O)(=O)N(CC(=O)Nc2ccc3c(c2)OCO3)c2ccccc2)cc1	-10%	u
73	COc1cc2c(c(OC)c1)C(c1cccc(F)c1F)CC(=O)N2 (centres undefined)	-16%	2%
74	Oc1ccccc1-c1nc(/C=C/c2ccccc2Cl)nn1-c1ccccc1	-20%	u
75	CCOC(=O)c1c(C)[nH]c(C)c1S(=O)(=O)N1CCCC(C(=O)N2CCN(c3cc(C)ccc3C)CC2)C1 (centres undefined)	u	10%
76	COc1cc(Cl)c(NS(=O)(=O)c2ccc3c(c2)CC(C)N3C(=O)C2CCC2)c(OC)c1 (centres undefined)	8.9µM*	12µM*
77	O=S(=O)(NCC(c1ccco1)S(=O)(=O)c1ccccc1)c1ccccc1 (centres undefined)	-15%	u
78	CCOC(=O)c1ccc(NC(=O)CSc2c(C(C)C)cnc3c2c(=O)n(C)c(=O)n3C)cc1	-9%	-6%
79	CCn1c(=O)c2cc(C(=O)N(CC(C)C)CC(C)C)sc2c2ccccc21	-11%	u
80	Cc1cccc(N2CCN(C(=O)CCNS(=O)(=O)c3ccc4c(c3)CCN4C(=O)C3CC3)CC2)c1C	u	u
81	COc1ccc(CCNC(=O)c2ccc(CSCc3ccc(C)cc3)o2)cc1OC	25µM*	-34%
82	CCOc1ccccc1NC(=O)C1CCN(S(=O)(=O)c2cc(Br)cc3c2N(C(C)=O)CC3)CC1	11%	-25%
83	Cc1cccc(-c2nnn3c2nc(NCCc2ccc(S(N)(=O)=O)cc2)c2cc(Cl)ccc23)c1	-5%	u
84	CCc1ccc(OCc2nc(-c3ccc(-n4cccc4)cc3)no2)cc1	13%	-3%
85	O=C(CNC(=O)c1ccc(Cl)cc1)OCc1cc(=O)n2nc(C3CC3)sc2n1	-16%	-4%
86	Cc1ccc(CNC(=O)c2c3c(nc4ccccc24)C(=O)N(C2CCCCC2)C3)cc1	u	u
87	CCN(CC)CCSC(=O)C(c1ccccc1)c1ccccc1	8%	x
88	COc1ccc(C(=O)c2sc(Nc3cc(Cl)ccc3C)nc2N)cc1OC	-7%	0%
89	Cc1ccc(CN(Cc2ccco2)C(=O)c2ccccc2Cl)o1	-14%	-2%
90	COc1ccccc1CNC(=O)C1CCCN(c2nnc(-n3c(C)ccc3C)s2)C1 (centres undefined)	-16%	u
91	Cc1c(C(=O)NCc2ccccc2Cl)sc2nc[nH]c(=O)c12	18%	-77%
92	Cc1ccc(C(=O)c2c(N)c(C(=O)Nc3ccccc3Cl)c3ccccn23)cc1	0%	22%
93	COc1ccccc1N1CCN(C(=O)Cn2c(=O)nc(-c3ccccc3)c3cc(Cl)ccc32)CC1	0%	u
94	Cc1cccc(CN2CCC(CNC(=O)c3c(C)oc4ncnc(N5CCCCC5)c34)CC2)c1	-3%	u
95	COc1ccc(C(=O)/C=C/c2cn(CC(O)CN3CCc4ccccc43)c3ccccc23)cc1 (centres undefined)	-19%	-61%
96	Cc1ccc(-n2c(CCC(=O)O)ccc2-c2cccs2)cc1Cl	-2%	-48%
97	CCOC(=O)c1c(C)[nH]c(C)c1S(=O)(=O)N(C)CC(=O)Nc1cccc(Cl)c1C	-20%	-2%
98	CCCOc1ccc(CNC(=O)c2[nH]c3cc(OC)ccc3c2Sc2ccccc2)cc1	-7%	u
99	COc1ccccc1CNC(=O)C(=O)NCC(c1cccs1)S(=O)(=O)c1cccs1 (centres undefined)	-24%	-26%
100	COc1ccc(-c2onc(C)c2C)cc1S(=O)(=O)NCC1CCN(Cc2cccc(F)c2)CC1	-35%	14µM*
101	CNC(=O)c1ccc(NC(=O)COc2ccc(-c3nn(C)c(=O)c4ccccc34)cc2)cc1	-7%	-2%
102	COc1cccc(-n2c(SCC(=O)Nc3nnc(C)s3)nc3c([nH]c4ccccc43)c2=O)c1	-6%	3%
103	COc1ccc(-c2onc(C)c2C)cc1S(=O)(=O)N(C)Cc1ccco1	u	-6%
104	N#C/C(=C\c1ccc(-c2ccc(F)cc2F)o1)c1nc2ccccc2[nH]1	6%	u
105	CCOc1ccc(CNC(=O)C(C)n2ncn3cccc3c2=O)cc1 (centres undefined)	-11%	26%

# Compounds shown so far with a nitro group on carbon:
entry	SMILES	HTT prom inh	PMP22 txn prim
40	Cc1ncc([N+](=O)[O-])n1CCO	8%&6%	x
52	COc1ccccc1-c1noc(-c2ccc(N3CCC(C)CC3)c([N+](=O)[O-])c2)n1	33%[activator]	u
